# HSD17B inhib: blocks hydroxysteroid 17-beta dehydrogenase activity; recombinant HSD17B10, NADH fluorescence kinetic; many of its hits are not listed in these tables; Potency, µM (titrated, usually from 57.1 µM), without a hit: at the highest dose activity change, negative = inhibition, usual class: inhibitors; 7.6% of 75,000 active; active = well fitted inhibition curve with a large enough effect; inconclusive = small, poorly fitted or top-dose-only effect; inactive = no such curve, though single readings can be large or run the other way;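 also: the protocol describes HADH2 (HSD17B10) and not the HSD17B4 of the title; nearly all actives have a fitted effect of over 70% in size; most hits overshoot -100% by far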
#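 Activity followed as NADH fluorescence increase (ex 360, em 450 nm) every 30 seconds for 4 min, using final 90 uM beta-hydroxybutyryl CoA and 1 mM NAD+. Recombinant His-tagged enzyme, 20 nM, pH 9.0 Tris buffer, 15 min compound preincubation.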
# Numbers without * were called inactive; ? = inconclusive; [ ] = remark or other dose. % is scaled to controls: 0 for no effect and ±100 for the full control effect; potency is read from the fitted curve at half-maximal effect.
SMILES,HSD17B inhib
O=C(CN(C(=O)CSc1nnc(COc2ccccc2)o1)c1ccc(F)cc1)NC1CCCC1,7%
Cc1ccccc1-c1nc(CS(=O)CC(=O)NCCN2CCOCC2)c(C)o1 (stereo not drawn),-3%
CCC1=C(OC(=O)N(CC)CC)N2C(=O)OC(=NCC(=O)OC)[C@]2(C)[C@H]2C1=CC[C@H]1C(=O)N(C)C(=O)[C@H]12,10%
Cc1nc2c(OCc3ccccc3)cccn2c1CC#N,-3%
COC(=O)CCC(=O)c1oc2ccccc2c1N,-15%
Cc1noc(C)c1C(=O)N1CCC2(CCN(C(=O)Nc3ccccc3)CC2)CC1,7%
O=C(NCc1ccco1)C1(c2ccccc2)CCCC1,-12%
c1cncc(-c2noc(C34CC5CC(CC(C5)C3)C4)n2)c1,-24%
Cc1ccccc1C(=O)c1cccn1CC(=O)O,6%
COc1ccc(-c2cc(C(=O)N3CCN(c4ccccn4)CC3)c3ccccc3n2)cc1,?
Cc1cccc(NC(=O)CN2CCCN(S(=O)(=O)c3ccc(Br)s3)CC2)c1,-9%
CCc1nnc(NC2=NCCC2)s1,-1%
COc1cccc(NC(=O)COc2ccc(N3CC(C(=O)NCC(C)C)CC3=O)cc2)c1 (stereo not drawn),9%
CCC1(CC)C(=O)N(C)C(=O)NC1=NCc1ccccc1,16%
CN(c1ccc(C(=O)N2CCCCC2)cc1)S(=O)(=O)c1ccccc1,8%
COc1ccc(NS(=O)(=O)c2ccc3c(c2)Cc2ccccc2-3)cn1,3%
O=C(NCc1ccco1)c1ccc2ccccc2c1,-9%
CCn1cc(C(=O)NC2CCC(C)CC2)c(=O)c2cc(S(=O)(=O)N3CCCCC3)ccc21 (stereo not drawn),-18%
Cc1cnc(CNc2ccnc(-c3cccnc3)n2)cn1,-1%
Cc1ccc2cc(CN(Cc3ccccc3)Cc3nnnn3C3CCCC3)c(=O)[nH]c2c1,?

# 15 entries out of the list, arranged by SMILES length, rising:
SMILES,HSD17B inhib
CCc1nnc(NC2=NCCC2)s1,-1%
Cc1ccccc1C(=O)c1cccn1CC(=O)O,6%
Cc1nc2c(OCc3ccccc3)cccn2c1CC#N,-3%
O=C(NCc1ccco1)C1(c2ccccc2)CCCC1,-12%
Cc1cnc(CNc2ccnc(-c3cccnc3)n2)cn1,-1%
CCC1(CC)C(=O)N(C)C(=O)NC1=NCc1ccccc1,16%
c1cncc(-c2noc(C34CC5CC(CC(C5)C3)C4)n2)c1,-24%
CN(c1ccc(C(=O)N2CCCCC2)cc1)S(=O)(=O)c1ccccc1,8%
Cc1ccccc1-c1nc(CS(=O)CC(=O)NCCN2CCOCC2)c(C)o1 (stereo not drawn),-3%
Cc1cccc(NC(=O)CN2CCCN(S(=O)(=O)c3ccc(Br)s3)CC2)c1,-9%
COc1ccc(-c2cc(C(=O)N3CCN(c4ccccn4)CC3)c3ccccc3n2)cc1,?
COc1cccc(NC(=O)COc2ccc(N3CC(C(=O)NCC(C)C)CC3=O)cc2)c1 (stereo not drawn),9%
O=C(CN(C(=O)CSc1nnc(COc2ccccc2)o1)c1ccc(F)cc1)NC1CCCC1,7%
CCn1cc(C(=O)NC2CCC(C)CC2)c(=O)c2cc(S(=O)(=O)N3CCCCC3)ccc21 (stereo not drawn),-18%
CCC1=C(OC(=O)N(CC)CC)N2C(=O)OC(=NCC(=O)OC)[C@]2(C)[C@H]2C1=CC[C@H]1C(=O)N(C)C(=O)[C@H]12,10%

# Continuation.
SMILES,HSD17B inhib
COCC(=O)N1CCC2(CC1)CCN(C(=O)Nc1cccc(C#N)c1)CC2,10%
COc1ccc(OCc2nn3c(-c4ccco4)nnc3s2)cc1,-3%
Cc1ccc2c(c1)nnn2C1CCN(CC(=O)Nc2ccccc2N2CCOCC2)CC1,-3%
Cc1ccc(NCc2nnc(SCC(=O)NCc3ccco3)n2CC2CCCO2)cc1Cl (stereo not drawn),-3%
CCOc1ccc(N(CC(=O)Nc2ccc(OC)cc2)S(=O)(=O)c2c(C)noc2C)cc1,2%
O=C(CSc1nnc(CNC(=O)c2cccs2)o1)NCCc1ccccc1,8%
O=S(=O)(c1ccccc1)c1ccccc1/C=N\O,2%
CC(C)c1ccc(-c2noc(C3CCCN(C(=O)c4ccc(F)cc4F)C3)n2)cc1 (stereo not drawn),4%
O=C(CN1CCOCC1)Nc1cccc(C(=O)Nc2cccc(C(F)(F)F)c2)c1,10%
Cc1ccnc(NS(=O)(=O)c2ccc(NC(=O)C3CCCCC3)cc2)n1,9%
Cc1c(Cl)cnc(NC(=O)COC(=O)C(NC(=O)c2ccco2)C(C)C)c1Cl (stereo not drawn),?
NCCOc1ccccn1,3%[11.4 µM]
COc1cc(C2c3c(oc4ccccc4c3=O)C(=O)N2CCN2CCOCC2)cc(OC)c1OC (stereo not drawn),-1%
CCc1nnc(NC(=O)CSc2nnc(CNc3ccc(Cl)cc3)o2)s1,-3%
Cc1cccc(S(=O)(=O)C(C#N)c2nc3ccccc3nc2N2CCOCC2)c1 (stereo not drawn),-19%
CN(C)C(=O)CSc1cccc2cccnc12,32µM*
Cn1c(-c2ccc(F)cc2)cnc1NCc1ccccc1,?
C=C(C)C1CC=C(CN2CCC(C(=O)OCC)CC2)CC1 (stereo not drawn),-9%
CCCCN1CCc2c([nH]c3ccccc23)C1=O,?
O=C(O)COCC(=O)Nc1ccc2c(c1)CCC2,9%
CCOc1cc(N2CCOCC2)c(OCC)cc1NC(=O)CCS(=O)(=O)c1ccc(Cl)cc1,-9%
C=CCOC(=O)N1CCN(c2cccc(C(F)(F)F)c2)CC1,-9%
Cc1ccccc1OC(C)c1nc(-c2ccccc2)no1 (stereo not drawn),-1%
Cc1ccc2cccc(Oc3cnccn3)c2n1,-6%
CCNc1ccc(S(=O)(=O)C(F)(F)F)cc1NC(=O)C12CCC(CC1)C2,8%
CN(C)C(=O)c1ccc(Oc2ccc(C(=O)N(C)C)cc2)cc1,-2%
COc1ccc(-n2c(Cc3cccn3C)nnc2SCC(=O)Nc2ccc(C)c(Cl)c2)cc1,-4%
Fc1ccc(C2=Nn3c(Cc4ccccc4)nnc3SC2)cc1,5%
Cc1ccc2cc(CN(Cc3nnnn3C3CCCC3)C3CCCCC3)c(=O)[nH]c2c1C,-4%
COC(=O)CC1C(=O)NC2CCCCC2N1C(=O)c1ccccc1 (stereo not drawn),-10%
Cc1ccc(O)c(C2=NOC(O)(C(F)(F)C(F)F)C2)c1 (stereo not drawn),3%
COc1ccccc1CC(NC(C)=O)C(=O)NC1CCN(c2nnnn2-c2ccccc2)CC1 (stereo not drawn),-1%
Cc1nn(C(=O)c2cccs2)c(N)c1-c1ccccc1,0%
COc1ccccc1-c1cc(C(=O)NCc2cccs2)no1,?
COc1ccccc1S(=O)(=O)Cc1ccc(C(=O)NCCN2CCCC2)o1,3%
CCOC(=O)c1cnc(SCC(=O)Nc2sc(C)c(C)c2C#N)nc1N,6%
COCCNC(=O)c1c[nH]c2ccc(OC)cc2c1=O,?
CC1(C)C2CCC(C2)C1(C)NC(=O)CN1CCOCC1 (stereo not drawn),7%
COc1ccc(CCNC(=O)C2CCN(S(=O)(=O)c3cccc4nsnc34)CC2)cc1OC,-3%
CC(N=C1NS(=O)(=O)c2ccccc21)c1ccccc1 (stereo not drawn),1%
CC(C)c1ccc(NC(=O)CSc2nnc(-c3ccccn3)n2C)cc1,5%
CC1(C)N=C(C(=O)c2ccccc2)N(O)C1(C)O (stereo not drawn),5%
O=c1cc(C(F)(F)F)nc(-c2ccccc2)[nH]1,10%
CCOC(=O)c1ccc(NC(=O)CCc2ccc(CC)o2)cc1,-13%
Cc1ccc(CN(c2ccc(C(=O)N3CCOCC3)cc2)S(C)(=O)=O)cc1,8%
COc1cc(NC(=O)c2cnn3c(C)cc(C)nc23)c(OC)cc1Cl,-11%
CCCCCc1c(O)c2ccccc2[nH]c1=O,32µM*
CCCn1c(SCC(=O)NCCc2ccc(Cl)cc2Cl)n[nH]c1=O,-3%
COc1ccc(CCN2CC34C=CC(O3)C(C(=O)NCc3ccccc3)C4C2=O)cc1OC (stereo not drawn),8%
Cc1ccc(CNC(=O)c2ccc(CN3CCOCC3)cc2)cc1,-2%
CCC1CCC(NC2CCCCNC2=O)CC1 (stereo not drawn),2%
C=CCn1c(SC(CCO)C(=O)NCc2ccco2)nc2sc3c(c2c1=O)CCC3 (stereo not drawn),1%
NC(=NC1C2CC3CC(C2)CC1C3)Nc1ccc(I)cc1 (stereo not drawn),23%
Cc1ccc(OCn2c(=O)sc3ccccc32)cc1,-5%
N#CCCn1c(=O)cnc2cnc(OCc3ccccc3)nc21,-16%
CC12CCC(C(=O)NCCN3CCCCC3)(CC1=O)C2(C)C (stereo not drawn),4%
COc1ccc(-n2c(Cc3cccn3C)nnc2SCC(=O)Nc2ccccc2C)cc1,7%
COc1ccccc1N1CCN(C(=O)CN(c2cc(C)cc(C)c2)S(C)(=O)=O)CC1,13%
COc1ccc2[nH]c3c(NCCN4CCCCC4)ncnc3c2c1,?
O=C(CCCCCN1C(=O)CCC1=O)Nc1ncn[nH]1,-4%
# Further records
SMILES,HSD17B inhib
Cc1cccn2c(=O)c(C=Nc3ccccc3)c(NCCO)nc12,32µM*
CCOC(=O)C(CC)n1cnc2c(cnn2-c2ccc(Cl)cc2)c1=O (stereo not drawn),2%
O=C(c1cn(CC(=O)N2CCCC2)c2ccccc12)C1CCCCC1,8%
CC(C)OCCCNc1nc2c([nH]1)c(=O)n(C)c(=O)n2C,4%
O=C(OCc1nc(-c2ccccc2)oc1COC(=O)c1ccco1)c1ccco1,-18%
CC(=O)CC(C)C,5%
COc1cc(C2SCCCCCCCCCCSC(c3ccc(O)c(OC)c3)SCCCCCCCCCCS2)ccc1O (stereo not drawn),5%[11.4 µM]
COc1ccccc1-c1nccc(-n2ccnc2)n1,3%
O=C(CC1(O)C(=O)N(C/C=C/c2ccccc2)c2ccccc21)c1ccccn1 (stereo not drawn),25µM*
COC(=O)CN(c1ccc2c(c1)OCCO2)S(=O)(=O)c1ccccc1,6%
CC(=O)OC1CC[C@@]2(C)C(CC[C@@]3(C)C2CC=C2C4CC(C)(C)CC[C@]4(C(=O)O)CC[C@@]23C)C1(C)C (stereo partly drawn),2%
COCCn1c(=O)c(CCc2ccccc2)nc2cnc(N3CCN(C)CC3)nc21,32µM*
CSc1nc2ccc(Nc3nc(N4CCOCC4)nc(N4CCOCC4)n3)cc2s1,25µM*
NC(=O)C1CCN(C(=O)C2CCN(S(=O)(=O)c3ccccc3)CC2)CC1,9%
COC(=O)C1=C(C)N(C)C(C)=C(C(=O)OC)C1c1ccccc1C,16%
O=C(Nc1cccc(F)c1)N1CCCC2(CCN(C(=O)c3ccncc3)CC2)C1,-4%
CCCCCCSc1nsc(NC(C)=O)n1,-2%
CC(C)(C)NC(=O)c1cccc(NC(=O)c2ccc(NC(=O)c3ccco3)cc2)c1,4%
CCn1ccnc1C(O)c1cccc(OC)c1 (stereo not drawn),8%
Cc1cc2c(cc1C)NC1(C(=O)Nc3ccccc31)C1=C(CC(C)(C)CC1=O)N2 (stereo not drawn),-1%
COc1ccc(N2CCN(C(=O)CN3C(=O)C4CC=CCC4C3=O)CC2)cc1 (stereo not drawn),25µM*
CCOC(=O)c1ccc(COC(=O)CCc2nc3ccccc3[nH]c2=O)o1,?
Nc1c(C(=O)NC2CC2)c2nc3ccccc3nc2n1-c1ccc2c(c1)OCO2,25µM*
CC(C)=CCC/C(C)=C/CO/N=C1/C[C@@H](O)[C@@H](O)[C@@H]2[C@@H]3C(=O)N(C4CCCCC4)C(=O)[C@H]3CC[C@H]12,0%[11.4 µM]
COC(=O)c1ccccc1N1C(=O)C2C(C1=O)[C@H]1C=C[C@@H]2C1 (stereo partly drawn),29%
COc1cccc(NC(=O)N2CCC(C(=O)Nc3ccc(C)cc3C)CC2)c1,1%
COC(=O)C1(CC(C)C)C=C2C(=C(C)C(=O)C2C)CN1 (stereo not drawn),-24%
O=C(Nc1ccc2nc(-c3ccc(Br)o3)[nH]c2c1)c1ccco1,-15%
Cn1c2ccccc2c2nnc(SCc3ccc4nonc4c3)nc21,2%
N#Cc1c(N)nc(SCC(=O)NC2CCCCC2)c(C#N)c1-c1ccc(Cl)cc1,-6%
COc1ccc(NS(=O)(=O)c2c(C)[nH]c(=O)[nH]c2=O)c(OC)c1,-4%
CC1(C)N=C(N)N=C(N)N1c1cccc(CSc2ccccc2)c1,5%[11.4 µM]
Cn1nnnc1SCC(=O)NC(=O)Cc1ccccc1,1%
CCN1CCN(c2ncnc3c2sc(=S)n3-c2ccccc2)CC1,-6%
O=C(NCCN1C(=O)CCC1=O)c1ccncc1,11%
O=C(NC1CCCCCCC1)C1CCCN(S(=O)(=O)c2cnc[nH]2)C1 (stereo not drawn),1%
COC(=O)NC(/C(C(=O)OC)=C(\C)NCc1ccccc1)c1ccc(F)cc1 (stereo not drawn),-4%[11.4 µM]
CCOc1ccc(CCNC(=O)C2CCN(c3nnc(-n4cccc4)s3)CC2)cc1OCC,0%
COc1ccc(NS(=O)(=O)c2ccc3oc(Nc4ccc5c(c4)OCCO5)nc3c2)cc1,-21%
O=C(C1CC(=O)N(C2CCCC2)C1)N1CCN(c2ccc(F)cc2)CC1 (stereo not drawn),5%
Cc1ccc(-c2cc(C(F)(F)F)n3ncc(C(=O)NCc4ccco4)c3n2)cc1,7%
COc1ccc(C(=O)N2CCC(C(=O)Nc3cccc(C)c3)CC2)cc1OC,4%
CCOC(=O)c1ccc(NC2c3ccccc3C(=O)N2c2cccnc2)cc1 (stereo not drawn),5%
COC(=O)C1CCN(C(=O)C2CCCCC2)CC1,7%
CCOc1ccc(-n2cc(C(=O)N3CCN(C)CC3)c3cc(OC)c(OC)cc3c2=O)cc1,1%
CC(C)NCC(O)c1cc(O)cc(O)c1 (stereo not drawn),0%

# A portion of the library; the hit share may differ from the screen's.
